Source: PubChem
INS promoter inh: TRM-6 insulin promoter activity inhibition | TRM-6 cells (human fetal islet line), insulin promoter-eGFP reporter, imaging; reporter expression induced with tamoxifen | actives 0.9% (n = 130,000) | inhibition, % at 2 µM;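 active means inhibition above the mean plus 3 SD, with well images judged a real hit on visual review, cut at about 60% in these data, passing the limit was not always enough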
PKD1 inh: PKD1 (human) kinase inhibition | inhibition, %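 (about 10 µM by stock and volumes)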 | actives 0.056% (n = 200,000) | Q15139 | AID 797 | PKD1 kinase fluorescence polarization assay;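 active means inhibition of 50% or more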;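 further: controls were vehicle for no effect and a reference inhibitor for full effect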
RGS16-Gao: RGS16-Galphao interaction regulator (human) | bead-based flow cytometry RGS16-Galphao binding, fluorescence; actives lie on both sides | binding response (% of control), % at 10 µM | actives 0.38% (n = 220,000) | AID 1441;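 active means below 25% or above 175%, edge rows of some plates excepted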;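 further: Galphao activated by GDP with aluminum fluoride before binding; 100% = wells without compound and 0% = beads without RGS; some results beyond the cut were filed as inactive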
Target sequence (O15492 whole entry, looked up): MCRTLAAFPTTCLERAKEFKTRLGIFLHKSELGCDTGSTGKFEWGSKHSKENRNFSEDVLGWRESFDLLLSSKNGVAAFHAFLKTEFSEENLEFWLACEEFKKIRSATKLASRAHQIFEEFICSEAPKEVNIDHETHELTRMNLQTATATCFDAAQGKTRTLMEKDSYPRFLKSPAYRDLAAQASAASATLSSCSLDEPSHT
Target sequence (P09471 whole entry, looked up): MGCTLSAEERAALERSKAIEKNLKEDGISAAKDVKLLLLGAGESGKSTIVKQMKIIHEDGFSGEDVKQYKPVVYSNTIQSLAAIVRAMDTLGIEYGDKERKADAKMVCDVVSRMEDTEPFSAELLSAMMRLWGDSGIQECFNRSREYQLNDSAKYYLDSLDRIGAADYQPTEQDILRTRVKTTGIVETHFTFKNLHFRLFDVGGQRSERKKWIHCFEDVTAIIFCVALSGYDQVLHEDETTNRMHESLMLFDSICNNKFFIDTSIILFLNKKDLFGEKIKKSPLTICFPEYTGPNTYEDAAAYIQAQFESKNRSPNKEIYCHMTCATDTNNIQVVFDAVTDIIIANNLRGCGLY
GALR2 agonist: activates the human galanin receptor 2; O43603; GALR2-expressing cells, agonist activation read-out; activation, %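 (tested at 5 µM)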; actives 0.48% (n = 140,000); AID 803;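 active means above mean plus 3 SD of all compounds, about 5% in these data, not always enough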;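 further: 0% = vehicle buffer wells and 100% = reference agonist at full effect; tested in CHO reporter cells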
Target sequence (O43603 whole entry, looked up): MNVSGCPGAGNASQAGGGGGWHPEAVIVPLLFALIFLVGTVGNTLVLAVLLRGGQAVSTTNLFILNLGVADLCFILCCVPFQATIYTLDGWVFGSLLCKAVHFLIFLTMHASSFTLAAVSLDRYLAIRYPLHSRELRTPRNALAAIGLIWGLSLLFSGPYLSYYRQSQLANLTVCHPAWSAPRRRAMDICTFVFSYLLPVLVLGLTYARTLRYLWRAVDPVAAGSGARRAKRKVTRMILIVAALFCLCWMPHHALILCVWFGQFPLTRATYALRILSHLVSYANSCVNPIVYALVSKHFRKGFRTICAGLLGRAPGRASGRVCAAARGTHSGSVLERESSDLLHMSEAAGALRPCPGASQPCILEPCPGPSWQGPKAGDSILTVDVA
HSV augment: HSV replication enhancement. HSV replication augmentation in cells, fold increase. maximum fold increase. actives 0.005% (n = 220,000);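 active means peak rise of 1.5-fold or more in the series; tested in PC3 cells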;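 further: first round at 10 µM; read as green reporter fluorescence; hits show the peak of a series up to 25 µM; 1 = signal of infected wells without compound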
INS promoter inh cell count: further read-out of INS promoter inh, marked with its call; normalized cell count, %; measured here: cell count, toxicity; reference of the scale not given here;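 cells exposed to compound for 48 h; stained nuclei by imaging scaled within each plate; lower means fewer cells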
HSV augment primary fold: second read-out of HSV augment, no call of its own (marks repeat the call); fold increase; compound at 10 µM; measured here: primary screen fold increase 10 uM; tested in PC3 cells;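 GFP signal in the first replicate; 1 = infected wells without compound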
The depositor's hits bear a star; i = inactive; x = no result given.

entry	SMILES	INS promoter inh	INS promoter inh cell count	PKD1 inh	RGS16-Gao	GALR2 agonist	HSV augment	HSV augment primary fold
1	COc1ccc(C(=O)CN2CC(C)SC2=Nc2ccc(Cl)cc2)cc1 (stereo unspecified)	x	x	-1	103	-1.4	i	1.1
2	COc1ccc(Cl)c2c1[nH]c1nc(SCc3ccccn3)nnc12	8	107	4	106	x	i	0.88
3	COC(=O)c1sc2ccccc2c1NC(=O)c1coc2ccccc2c1=O	x	x	-7	96	-0.7	i	0.89
4	CCCC(=O)c1cc2c(cc1NC(=O)c1cccs1)OCCO2	23	53	-3	98	-0.5	i	0.97
5	Nc1nonc1-c1noc(CCCCCN2C(=O)c3ccccc3C2=O)n1	44	71	9	109	-1.8	i	0.85
6	CS(=O)(=O)c1ccccc1COC(=O)Nc1ccc(Cl)cc1	-4	131	-2	107	0.7	i	0.95
7	O=C(CSc1nc2ccc([N+](=O)[O-])cc2s1)NC1CCS(=O)(=O)C1 (stereo unspecified)	19	100	-3	138	x	i	0.86
8	C/C(=N\NC(=O)CNc1cccc(Cl)c1C)c1cccs1	x	x	1	108	x	i	0.83
9	CC1CCCCN1C(=S)Nc1ccc2nc3n(c(=O)c2c1)CCCCC3 (stereo unspecified)	-20	131	-9	111	0.7	i	0.78
10	COc1ccc(C(C)=O)c(OC(=O)c2ccco2)c1	-5	124	-3	97	-0.7	i	0.99
11	CN1CCN(c2ccc(CNS(=O)(=O)Cc3cccc(C(F)(F)F)c3)cc2)CC1	x	x	x	95	x	i	1.2
12	CN1C(CC(=O)c2ccccc2)CCCC1CC(O)c1ccccc1 (stereo unspecified)	-27	87	1	100	-0.8	i	0.87
13	COc1ccc(/C=C/C(=O)NCCCc2ccccc2)cc1OC	-9	56	-7	111	0.8	i	1
14	COc1ccc(NC(=O)C2C(c3ccccc3)C2(Cl)Cl)cc1 (stereo unspecified)	x	x	x	105	x	i	1
15	Cc1nc(CCN2C(=O)c3ccccc3C2=O)n[nH]1	54	107	2	107	-2.7	i	1
16	Cc1ccnc(NC(=O)CN(C)S(=O)(=O)c2cccc3nsnc23)c1	-93	109	-4	97	-4.4	i	1.1
17	O=C(NCC(c1cccs1)N1CCOCC1)c1cc(-c2ccccn2)nc2ccccc12 (stereo unspecified)	x	x	x	101	x	i	0.86
18	COc1cccc(C(c2nnnn2Cc2ccccc2)N2CCN(C(=O)c3ccco3)CC2)c1OC (stereo unspecified)	-22	164	-3	99	0.2	i	1.1
19	COc1ccc([N+](=O)[O-])cc1NC(=S)NC(C)=O	x	x	-8	100	x	i	0.89
20	Cc1ccc(/C=N/n2c(-c3cccnc3)n[nH]c2=S)o1	x	x	x	105	x	i	0.96

Compound profiles, from the list above. Screens in order: INS promoter inh, INS promoter inh cell count, PKD1 inh, RGS16-Gao, GALR2 agonist, HSV augment, HSV augment primary fold
Profile of COc1ccc([N+](=O)[O-])cc1NC(=S)NC(C)=O = x, x, -8, 100, x, i, 0.89
Profile of COc1ccc(C(=O)CN2CC(C)SC2=Nc2ccc(Cl)cc2)cc1 (stereo unspecified) = x, x, -1, 103, -1.4, i, 1.1
Profile of O=C(CSc1nc2ccc([N+](=O)[O-])cc2s1)NC1CCS(=O)(=O)C1 (stereo unspecified) = 19, 100, -3, 138, x, i, 0.86
Profile of COc1cccc(C(c2nnnn2Cc2ccccc2)N2CCN(C(=O)c3ccco3)CC2)c1OC (stereo unspecified) = -22, 164, -3, 99, 0.2, i, 1.1

Next part:
entry	SMILES	INS promoter inh	INS promoter inh cell count	PKD1 inh	RGS16-Gao	GALR2 agonist	HSV augment	HSV augment primary fold
21	O=C(NCCC1=CCCCC1)C1CCC(CNc2nc(=S)[nH]c3ccccc23)CC1 (stereo unspecified)	x	x	-2	99	x	i	0.77
22	Cc1cc(NC(=O)CSc2ncnc3sc(C)c(C)c23)no1	x	x	0	99	x	i	0.95
23	CCOC(=O)C1=C(C)NC(=O)NC1c1ccc(Br)o1 (stereo unspecified)	-6	114	-10	113	0.3	i	0.91
24	COc1ccc(-c2cnn(-c3ccccc3)c2N)cc1OC	25	79	-13	87	-1.6	i	0.79
25	O=C(NCCC(=O)N1CCNC1=O)OCc1ccccc1	x	x	1	63	-2.6	i	1.1
26	Cc1nn(-c2ccccc2)c2nc(-c3cccs3)cc(C(=O)NN)c12	43	127	-3	102	x	i	0.94
27	CCSC(=Nc1ccccc1)Nc1ccccc1	x	x	-4	99	x	i	0.87
28	CCCCn1nnnc1NCc1cc(OC)c(OC)cc1OC	x	x	-6	105	-2.0	i	0.91
29	O=C(COC(=O)c1ccc(Br)o1)NC1CCCCC1	0	79	3	101	x	i	1
30	CCOC(=O)N1CCC(NC(=O)c2ccc(CO)c(C(=O)NC3CCN(C(=O)OCC)CC3)c2)CC1	0	144	-4	106	x	i	0.96
31	COc1cccc(OCc2nc3ccccc3c(=O)n2N)c1	-3	150	0	102	0.8	i	1.1
32	CCn1ncc(/C=N/NS(=O)(=O)c2ccc(Cl)cc2)c1C	-6	112	4	101	-2.8	i	0.91
33	Cc1cc(C(=O)N2CCCC(CNS(=O)(=O)c3cccs3)C2)nn1C (stereo unspecified)	x	x	-1	105	x	i	0.97
34	Cc1ccc(NC(=O)COc2cccnc2[N+](=O)[O-])cc1S(=O)(=O)N1CCCCC1	x	x	1	98	-0.1	i	0.94
35	Cc1nn(-c2ccc(F)cc2)c(Cl)c1/C=C/C(=O)OCC(=O)Nc1ccc(F)cc1F	x	x	0	101	0.5	i	1.1
36	CS(=O)(=O)ON=C1CCN(S(=O)(=O)c2ccccc2)CC1	x	x	-5	97	x	i	0.95
37	COc1cccc(C(=O)Nc2ccc(NC(C)=O)cc2)c1	x	x	-5	99	-1.6	i	0.92
38	CC(=O)Cc1nsc(NC(=O)c2c(-c3ccccc3Cl)noc2C)n1	18	80	1	98	-0.7	i	0.92
39	Cc1ccccc1C(=O)c1ccc2c(c1)n(C)c(=O)n2C	x	x	-4	98	-2.8	i	0.93
40	COc1cc(NC(=O)c2cccs2)ccc1NC(=O)c1cc2ccccc2o1	x	x	-10	103	x	i	0.73

Arranged by SMILES length (lowest first): part of the list above.
entry	SMILES	INS promoter inh	INS promoter inh cell count	PKD1 inh	RGS16-Gao	GALR2 agonist	HSV augment	HSV augment primary fold
37	COc1cccc(C(=O)Nc2ccc(NC(C)=O)cc2)c1	x	x	-5	99	-1.6	i	0.92
39	Cc1ccccc1C(=O)c1ccc2c(c1)n(C)c(=O)n2C	x	x	-4	98	-2.8	i	0.93
36	CS(=O)(=O)ON=C1CCN(S(=O)(=O)c2ccccc2)CC1	x	x	-5	97	x	i	0.95
38	CC(=O)Cc1nsc(NC(=O)c2c(-c3ccccc3Cl)noc2C)n1	18	80	1	98	-0.7	i	0.92
33	Cc1cc(C(=O)N2CCCC(CNS(=O)(=O)c3cccs3)C2)nn1C (stereo unspecified)	x	x	-1	105	x	i	0.97
35	Cc1nn(-c2ccc(F)cc2)c(Cl)c1/C=C/C(=O)OCC(=O)Nc1ccc(F)cc1F	x	x	0	101	0.5	i	1.1

Continued:
entry	SMILES	INS promoter inh	INS promoter inh cell count	PKD1 inh	RGS16-Gao	GALR2 agonist	HSV augment	HSV augment primary fold
41	CCCNC(=O)C1CCN(c2nc(C)cc(C)n2)CC1	3	43	-6	104	-1.9	i	1
42	COc1ccc(NC(=O)Nc2ccc(F)c(Cl)c2)cc1	-19	150	3	102	x	i	1.1
43	Cc1c(S(=O)(=O)Nc2ccc3c(c2)OCCO3)cnn1C	x	x	-6	109	x	i	1
44	COc1ccc(NC(=S)Nc2ccccc2)cc1	x	x	x	100	x	i	0.91
45	COc1ccccc1OC(=O)CCN1c2ccccc2Sc2ccccc21	55	124	-5	98	-0.1	i	0.88
46	Cc1nc(N2CCOCC2)nc(N2CCC(C)CC2)c1[N+](=O)[O-]	x	x	x	108	x	i	0.9
47	O=C(c1ccccc1NS(=O)(=O)c1cccs1)N1CCCC1	x	x	-13	104	-3.9	i	0.98
48	O=C(CCN1C(=O)COc2ccccc21)NCCN1CCc2ccccc2C1	36	93	3	98	-0.6	i	0.78
49	NC(=O)c1cc(Cc2ccccc2)sc1NC(=O)c1ccco1	23	154	-3	98	-1.2	i	0.75
50	COc1ccc(CNC(=O)COC(=O)CCC(=O)c2cccs2)cc1	x	x	x	102	x	i	1.1
51	COc1ccc(-n2ncc(N(C)n3cccc3)c(Cl)c2=O)cc1	36	94	-7	114	-1.8	i	0.86
52	Cc1ccc(-c2nnc(SCC#CCOC(=O)c3cccs3)o2)cc1	8	83	-2	101	-1.4	i	0.93
53	CNC(=O)/C(C#N)=C\c1ccc(CNS(=O)(=O)c2ccccc2)o1	-3	136	-7	103	-0.7	i	0.95
54	Cc1ccccc1NC(=O)COC(=O)CN1C(=O)NC(C)(C)C1=O	-47	60	-6	100	-2.0	i	1
55	O=S(=O)(NC1CCCCC1Oc1ccccc1)c1ccc(Cl)cc1 (stereo unspecified)	-34	96	-6	106	0.7	i	1
56	CC1CC(C)(C)NC(=S)N1CCC(=O)NCCc1ccc(Cl)cc1 (stereo unspecified)	x	x	-5	101	x	i	0.96
57	Nc1cc(-c2ccc(Br)cc2)nc2cc(-c3ccccc3)nn12	13	133	1	108	x	i	0.93
58	O=C(c1oc(=O)c2ccccc2c1-c1ccccc1)N1CCN(C2CCCCC2)CC1	x	x	-7	101	-0.9	i	1
59	CCOC(=O)N1CCC2(CC1)C(C#N)=C(N)Oc1n[nH]c(CSc3ccc(C)cc3)c12	x	x	-7	100	0.2	i	0.82
60	COc1ccccc1C(=O)NCCCN1CCCC1=O	3	117	-4	54	-2.3	i	1.1
61	Cc1cc(C)c(-c2cc(NC(=O)CSc3n[nH]c(N)n3)n(-c3ccccc3)n2)cc1C	16	120	5	-38*	-0.8	i	0.87
62	C#CC(C)(C)NC(=S)NC1CC2C=CC1C2 (stereo unspecified)	x	x	x	98	x	i	1.1
63	COc1cc(NC(=O)c2ccco2)ccc1NC(=O)C(C)C	-21	162	-12	101	0.6	i	0.87
64	COC(=O)C(NC(=O)c1cccnc1Cl)C(C)C (stereo unspecified)	x	x	x	96	x	i	1
65	O=C(NCc1csc(-c2cccs2)n1)Nc1cccc(Cl)c1	x	x	x	103	x	i	0.98
66	O=C(N/N=C/c1ccco1)c1cc(C2CC2)[nH]n1	x	x	x	100	x	i	1
67	S=C1NC(c2ccccc2)=NCN1c1ccc(Br)cc1	0	78	1	110	-0.4	i	0.95
68	CCCCN1C(=O)C(NC(=O)C2CC2)(C(F)(F)F)C2=C1CC(C)(C)CC2=O (stereo unspecified)	x	x	1	104	-1.6	i	0.86
69	CC(=O)C1=C(C)Nc2ncnn2C1c1ccc(Cl)cc1Cl (stereo unspecified)	x	x	2	99	-1.1	i	1
70	COC(=O)c1ccccc1NC(=O)CSc1nnc(-c2ccoc2C)n1C	x	x	7	102	-1.1	i	1
71	Cn1cccc1C(=O)Nc1nc(-c2ccccn2)cs1	9	54	-2	90	-2.6	i	0.84
72	N#Cc1ccc(C(=O)OCC(=O)Nc2ccc(N3CCOCC3)cc2)cc1	-44	103	-6	108	x	i	0.99
